# RGS16-Gao HTS: modulators of RGS16 binding to Galphao, primary screen, biochemical, human proteins, multiplexed bead flow cytometry; Regulator of G-protein signaling 16 (Homo sapiens) + Guanine nucleotide-binding protein …; bead-based flow cytometry RGS16-Galphao binding, fluorescence; actives lie on both sides; binding response (% of control), % at 10 µM; actives 0.38% (n = 220,000);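 active = below 25% or above 175%, edge rows of some plates excepted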;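 also: Galphao activated by GDP with aluminum fluoride before binding; 100% = wells without compound and 0% = beads without RGS; some results beyond the cut were filed as inactive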
# Target sequence (O15492 whole entry, looked up): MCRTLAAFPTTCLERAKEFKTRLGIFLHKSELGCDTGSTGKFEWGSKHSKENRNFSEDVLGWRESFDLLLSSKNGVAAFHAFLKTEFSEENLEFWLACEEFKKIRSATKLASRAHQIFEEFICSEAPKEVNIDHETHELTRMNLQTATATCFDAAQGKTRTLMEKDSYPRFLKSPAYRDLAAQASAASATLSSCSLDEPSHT
# Target sequence (P09471 whole entry, looked up): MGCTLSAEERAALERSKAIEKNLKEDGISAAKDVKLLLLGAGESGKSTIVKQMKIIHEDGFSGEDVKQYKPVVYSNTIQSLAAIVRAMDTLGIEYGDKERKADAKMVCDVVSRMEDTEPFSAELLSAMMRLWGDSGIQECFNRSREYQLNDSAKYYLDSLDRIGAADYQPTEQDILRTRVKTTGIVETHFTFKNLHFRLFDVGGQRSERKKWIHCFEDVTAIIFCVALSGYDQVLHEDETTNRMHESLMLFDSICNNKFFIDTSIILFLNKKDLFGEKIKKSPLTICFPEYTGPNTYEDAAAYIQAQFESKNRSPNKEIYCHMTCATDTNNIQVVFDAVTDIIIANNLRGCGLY
# PKD1 kinase inh: inhibitors of human PKD1 kinase, biochemical, fluorescence polarization; Serine/threonine-protein kinase D1 (Homo sapiens), Q15139; PKD1 kinase fluorescence polarization assay; inhibition, %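 (about 10 µM by stock and volumes)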; actives 0.056% (n = 200,000);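 active = inhibition of 50% or more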;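 also: controls were vehicle for no effect and a reference inhibitor for full effect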
# INS promoter inh: inhibitors of insulin promoter-driven GFP, primary screen, imaging, TRM-6 cells (human fetal islet line), eGFP reporter, cell count. reporter expression induced with tamoxifen. inhibition, % at 2 µM. actives 0.9% (n = 130,000). AID 1273, 2008;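 active = inhibition above the mean plus 3 SD, with well images judged a real hit on visual review, cut at about 60% in these data, passing the limit was not always enough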
# HSV replic up: enhancers of HSV replication in host cells, fold increase, host cell viability; HSV replication augmentation in cells; maximum fold increase; actives 0.005% (n = 220,000);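 active = peak rise of 1.5-fold or more in the series; tested in PC3 cells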;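 also: first round at 10 µM; read as green reporter fluorescence; hits show the peak of a series up to 25 µM; 1 = signal of infected wells without compound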
# GALR2 ag: GALR2 receptor agonists, primary screen, cell-based. activation, %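 (tested at 5 µM)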. Galanin receptor type 2 (Homo sapiens), O43603. GALR2-expressing cells, agonist activation read-out. actives 0.48% (n = 140,000);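 active = above mean plus 3 SD of all compounds, about 5% in these data, not always enough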;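 also: 0% = vehicle buffer wells and 100% = reference agonist at full effect; tested in CHO reporter cells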
# Target sequence (O43603 whole entry, looked up): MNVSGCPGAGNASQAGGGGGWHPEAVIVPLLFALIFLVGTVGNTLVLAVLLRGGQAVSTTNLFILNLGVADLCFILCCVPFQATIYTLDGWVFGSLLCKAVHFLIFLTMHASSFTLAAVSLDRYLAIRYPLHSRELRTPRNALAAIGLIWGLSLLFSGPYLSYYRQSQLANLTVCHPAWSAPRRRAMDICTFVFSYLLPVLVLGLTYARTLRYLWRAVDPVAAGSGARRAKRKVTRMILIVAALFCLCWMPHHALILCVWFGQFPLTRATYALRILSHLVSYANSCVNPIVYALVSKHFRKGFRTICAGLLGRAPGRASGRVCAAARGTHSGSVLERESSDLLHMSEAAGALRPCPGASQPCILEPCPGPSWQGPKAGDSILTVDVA
# INS promoter inh cell count: also measured in INS promoter inh; calls as there; normalized cell count, %; measured here: cell count, toxicity; reference of the scale not given here;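 cells exposed to compound for 48 h; stained nuclei by imaging scaled within each plate; lower means fewer cells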
# HSV replic up primary fold: second read-out of HSV replic up, no call of its own (marks repeat the call); fold increase; compound at 10 µM; measured here: primary screen fold increase 10 uM; tested in PC3 cells;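 GFP signal in the first replicate; 1 = infected wells without compound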
# * = called active by the depositor; i = inactive; / = not tested or not shown. Compounds were not picked by outcome; overall some 1.3% were active at least once.
SMILES,RGS16-Gao HTS,PKD1 kinase inh,INS promoter inh,INS promoter inh cell count,HSV replic up,HSV replic up primary fold,GALR2 ag
O=C(c1sc2ccccc2c1Cl)N(Cc1ccco1)C1CCS(=O)(=O)C1 (centres undefined),100,-11,-24,79,i,1.1,-1.1
N#CC(C(=O)NCCc1ccccc1)c1nc2ccccc2nc1N1CCOCC1 (centres undefined),99,-4,45,124,i,0.98,-2.9
Cc1c(C(=O)N(Cc2ccccc2)C(C)C)cnn1-c1ccccc1,102,/,/,/,i,0.93,/
Cc1ccc(C(=O)N2CCN(c3ncnc4c3cnn4-c3ccccc3)CC2)cc1,/,-1,62,122,i,0.97,0.2
NC(N)=NS(=O)(=O)c1ccc(N=C2C(=O)Nc3ccccc32)cc1,113,/,/,/,i,1.1,/
NNc1nc2c(F)cccc2s1,99,-5,/,/,i,1.4,-1.5
Cc1ccc2oc(=O)c3cnn(CC(=O)N4CCc5ccccc5C4)c3c2c1,110,27,/,/,i,0.96,/
COC(=O)/C=C1/N/C(=N\c2nc(C)cc(C)n2)N(c2ccc(C)c(C)c2)C1=O,103,-8,26,100,i,0.95,-1.4
Cc1ccc(OCc2nnc(NC(=O)c3cccnc3)s2)cc1,87,/,/,/,i,0.83,/
O=C(COC(=O)C1CC(O)CN1S(=O)(=O)c1ccc(Cl)cc1)c1cccc(Cl)c1 (centres undefined),98,-3,7,137,i,0.91,-0.6
Cc1nn(Cc2ccc(Cl)cc2)c(C)c1NC(=O)c1cc(-c2ccco2)on1,102,-4,-73,67,/,/,0.5
Cc1ccc2oc(=O)c3cnn(CC(=O)NC4CCN(Cc5ccccc5)CC4)c3c2c1,100,8,/,/,i,0.99,-2.4
COCCn1nnnc1SCC(=O)NCc1ccc2c(c1)OCO2,109,-8,26,19,i,0.87,/
COC(=O)c1ccccc1S(=O)(=O)N1CCn2cccc2C1C (centres undefined),102,-7,/,/,i,1,/
CCOC(=O)c1ccc2nc(NC(C)=O)sc2c1,98,-4,/,/,i,1,/
CCCC(=O)C1C(=O)CC(CC(C)SCC)CC1=O (centres undefined),96,-7,-3,115,i,0.84,-0.5
COC(=O)c1ccccc1N(C)S(=O)(=O)c1cc2c(cc1C)OCC(=O)N2,94,3,/,/,i,0.88,/
O=C1CSC(=Nc2ccccc2)N1Cc1ccccc1,98,3,0,73,i,0.89,/
COc1ccc(N2C(=O)CSC2c2ccccc2[N+](=O)[O-])cc1 (centres undefined),103,2,0,96,i,0.99,/
COc1ccccc1CNCC(=O)Nc1ccc(N2CCOCC2)cc1,104,3,-80,92,i,0.85,0.6
CCOc1ccc2c(c1)C(C)=CC(C)(C)N2C(=O)Nc1ccccc1,66,5,-81,94,i,1.2,-1.4
CCOc1ccc(-n2cc(C(=O)Nc3ccc(Cl)cn3)c3cc(OC)c(OC)cc3c2=O)cc1,98,6,-26,83,i,0.85,-3.4
CCCCN(CC)CCNC(=O)c1[nH]c(C)c(C(C)=O)c1C,105,-1,/,/,i,1,-1.2
Cc1nn(C)c(C(=O)N/N=C/c2ccc(C(F)(F)F)cc2)c1[N+](=O)[O-],103,-9,31,99,i,0.91,-1.1
CN(C)/C=N/c1ncc(C(=O)c2ccc(Cl)cc2Cl)s1,104,4,-26,101,i,0.97,/

# Further results.
SMILES,RGS16-Gao HTS,PKD1 kinase inh,INS promoter inh,INS promoter inh cell count,HSV replic up,HSV replic up primary fold,GALR2 ag
CCCCOC(=O)Nc1ccccc1C(N)=O,102,-4,/,/,i,0.6,-1.4
O=C(Oc1ccc2c(=O)c(Cl)coc2c1)c1ccncc1,94,-1,82*,117*,i,1,-0.6
CS(=O)(=NS(=O)(=O)c1ccc(Cl)cc1)c1ccccc1 (centres undefined),99,/,/,/,i,0.72,/
O=C(c1cc(-c2cccnc2)nc2ccc(Br)cc12)N1CCN(c2ncccn2)CC1,97,-5,/,/,i,0.76,-1.7
Cc1nc2cc(C(=O)O)ccc2s1,101,3,0,130,i,0.85,-3.8
COc1cccc2sc(NNC(=O)C3=COCCO3)nc12,96,-5,/,/,i,1.2,/
Cc1ccc(CSC2=NCCN2C(=O)C2CC2)cc1,104,-14,-24,172,i,0.97,1.1
C(=N\n1cnnc1)/c1ccc(-c2ccccc2)cc1,118,-8,/,/,i,1.1,-1.6
Nc1nonc1C(=O)NCCNC(=O)c1ccccc1F,103,-4,-100,128,i,0.92,-0.6
N/C(=N\OC(=O)Cc1cccs1)c1ccc([N+](=O)[O-])cc1,108,-3,-35,173,i,0.97,-1.5
O=C1c2cccc(OCC(=O)N3CCCc4ccccc43)c2CCN1Cc1ccc(F)cc1,110,-6,-43,59,i,0.89,0.0
O=C(O)C1(P(=O)(c2ccccc2)c2ccccc2)CCC1,105,-9,-7,112,i,0.9,-1.6
Cc1ccc(-c2csc(N/N=C/c3ccco3)n2)c(C)c1,106,0,-7,60,i,0.97,-0.6
O=C(Nc1ccc(Cl)cn1)Nc1ccc(Cl)cn1,101,3,/,/,i,0.89,/
Cc1cc(Nc2ccccc2)nn1C(=O)c1ccc(Cl)cc1,98,2,13,58,/,/,-3.3
CSc1ccccc1NC(=O)CO/N=C(\C)c1cc2ccccc2o1,35,-5,-6,62,i,1,-0.1
N/C(=N/O)c1cccn1Cc1ccccc1[N+](=O)[O-],100,3,/,/,i,1.1,/
Cc1ccc(NC(=O)CCn2cnc3ccccc3c2=O)cc1Cl,102,-5,/,/,i,0.91,-0.6
N#Cc1c(NC(=S)NC(=O)C2CCCC2)sc2c1CCCCC2,97,4,/,/,i,0.95,-1.1
CCC(CC)NC(=O)Cc1ccccc1OC,102,-4,-43,112,i,0.98,-2.6
CCOc1ccccc1N1CCN(CC(O)COc2ccc3c(C)cc(=O)oc3c2)CC1 (centres undefined),104,-9,-61,108,i,0.88,-1.5
C/C(=N\N=C(c1ccccc1)c1ccccc1)c1ccco1,115,-4,30,97,i,0.95,/
O=C(CO/N=C1\CCCc2nonc21)Nc1ccc(Br)cc1,100,-4,-48,81,i,1,-0.5
O=C(Nc1ncccc1Cl)c1cccc(F)c1,107,4,49,132,i,0.93,-2.5
CCOC(=O)CSc1nnc(CNC(=O)c2ccc(OC)cc2OC)n1-c1ccc(OC)cc1,105,2,/,/,i,0.97,-2.3

# Next part:
SMILES,RGS16-Gao HTS,PKD1 kinase inh,INS promoter inh,INS promoter inh cell count,HSV replic up,HSV replic up primary fold,GALR2 ag
Cc1nn(-c2ccccc2)c(Cl)c1C(=O)NCC(C)C,100,-12,11,48,i,0.91,0.7
CN(c1cccc(NC(=O)CN2C(=O)c3ccccc3S2(=O)=O)c1)S(C)(=O)=O,104,-3,-21,116,i,0.93,0.0
CC(CC(=O)c1cccs1)CC(=O)c1cccs1,103,-5,/,/,i,0.84,-3.5
Nc1nnc(SCc2ccccc2F)n1-c1ccccc1,103,-7,-11,89,i,1.1,-1.9
COC(=O)c1[nH]c2ccccc2c1NC(=O)CN1CCCc2ccccc21,101,-1,-209,75,i,0.93,-2.0
Cc1nc(N)c(Br)c(C)c1Br,98,4,25,74,i,1.1,/
Oc1[nH]c2ccccc2c1N=NC(=S)NCCc1ccccc1,96,1,0,85,i,1.1,-0.3
O=C(Nc1ccccc1F)c1cc2nc(C(F)F)cc(C(F)F)n2n1,96,-1,46,135,i,0.88,-2.1
Cc1nn2c(NCCOCCO)c3c(nc2c1-c1ccccc1)CCCC3,89,-8,39,106,i,0.89,-0.2
CCCn1c(N2CCN(C)CC2)nc2c1c(=O)[nH]c(=O)n2C,99,-7,35,127,i,1,-0.7
COc1ccc(N2CCN(C(=O)CCSCc3ccccc3F)CC2)cc1,98,-11,-7,106,i,0.94,/
O=S(=O)(c1ccc(Cl)cc1)N1CCN=C1SCc1ccc(Cl)c(Cl)c1,148,-3,/,/,i,1.1,-0.3
Cc1ccc(NC(=O)CCCN2C(=O)/C(=C/C=C/c3ccccc3)SC2=S)cc1,100,-2,20,45,i,0.98,-1.8
COc1ccc(CC(=O)Nc2ccc(OC(C)=O)cc2C(=O)O)cc1,101,-6,/,/,i,1.2,/
Cc1nc2sc(C(c3ccccc3)N3CCN(c4ccccc4F)CC3)c(O)n2n1 (centres undefined),104,-1,24,104,i,0.86,-3.1
COc1ccc(CCN(C)Cc2nc(-c3cnccn3)no2)cc1OC,95,/,/,/,i,0.99,/
CCC1CCCCN1Cc1ccc(CNS(=O)(=O)c2ccc3c(c2)oc(=O)n3C)o1 (centres undefined),103,-6,13,121,i,1,-0.3
Cn1c(SCC(=O)Nc2ccc3[nH]c(=O)[nH]c3c2)nnc1-c1ccc(F)cc1,101,/,/,/,i,0.89,/
CNS(=O)(=O)c1cc2c3c(cccc3c1)C(=O)NC2=O,105,-2,-25,95,i,0.78,/
CCC(C)NC(=O)C1CCN(c2nc(OC)nc(OC)n2)CC1 (centres undefined),/,-6,17,102,i,0.77,-1.6
CCOC(=O)C1CCN(C(=O)Cc2ccc(C)cc2)CC1,108,4,-43,127,i,0.95,-0.6
CCOc1ccc(N2C(=O)C(CC(=O)Nc3ccc(F)cc3)N(Cc3ccccn3)C2=S)cc1 (centres undefined),97,-3,-107,134,i,0.9,/
O=c1cc(O)c(-c2cccc(C(F)(F)F)c2)c(Cl)[nH]1,74,-5,23,95,/,/,/
CCOc1ccc(C(=O)NC(=S)NCc2cccnc2)cc1,98,2,-15,73,/,/,-0.2
O=C(NC(=S)Nc1ccccc1C(F)(F)F)c1ccccc1F,103,7,-59,148,i,1.1,/

# An excerpt from above in order of SMILES length, low to high.
SMILES,RGS16-Gao HTS,PKD1 kinase inh,INS promoter inh,INS promoter inh cell count,HSV replic up,HSV replic up primary fold,GALR2 ag
CC(CC(=O)c1cccs1)CC(=O)c1cccs1,103,-5,/,/,i,0.84,-3.5
Cc1nn2c(NCCOCCO)c3c(nc2c1-c1ccccc1)CCCC3,89,-8,39,106,i,0.89,-0.2
COc1ccc(CC(=O)Nc2ccc(OC(C)=O)cc2C(=O)O)cc1,101,-6,/,/,i,1.2,/
Cc1ccc(NC(=O)CCCN2C(=O)/C(=C/C=C/c3ccccc3)SC2=S)cc1,100,-2,20,45,i,0.98,-1.8
CCOc1ccc(N2C(=O)C(CC(=O)Nc3ccc(F)cc3)N(Cc3ccccn3)C2=S)cc1 (centres undefined),97,-3,-107,134,i,0.9,/

# Additional entries.
SMILES,RGS16-Gao HTS,PKD1 kinase inh,INS promoter inh,INS promoter inh cell count,HSV replic up,HSV replic up primary fold,GALR2 ag
CC(C)CN(C(=O)COC(=O)CCN1C(=O)c2ccccc2C1=O)C1CCS(=O)(=O)C1 (centres undefined),129,6,/,/,i,1,-2.4
CC(C)CNS(=O)(=O)c1ccc(CCC(=O)N2CCCC2)cc1,106,4,/,/,i,1,/
Cc1cccc(CSc2nnc(-c3ccco3)n2C)c1,98,2,/,/,i,0.82,-0.9
O=C1C(=O)N(c2ccc(O)cc2)C(c2ccccc2[N+](=O)[O-])/C1=C(\O)c1ccccc1 (centres undefined),97,/,/,/,i,1,/
Fc1ccccc1CN1CCCCCCC1,35,-2,55,77,i,0.94,-0.7
Cc1nnc(SCC(=O)Nc2ccc(N3CCOCC3)cc2)n1-c1ccccc1,117,1,-16,78,i,1,-1.3
COC(=O)N/N=C/c1cn(CC(C)COc2ccccc2)c2ccccc12 (centres undefined),40,0,-17,61,i,0.9,-0.4
CN1CC(=O)NC1=NC(=O)c1ccc(Cl)c(S(=O)(=O)N2CCCCCC2)c1,69,2,/,/,i,1,-1.2
Cc1ccc(-n2nnc3c(=O)n(CC(=O)N4CCOCC4)cnc32)cc1,100,-9,/,/,i,0.95,-1.3
CC(CC(=O)N1CCN(c2ccc(C(F)(F)F)cn2)CC1)n1ccnc1 (centres undefined),97,-1,/,/,i,1.1,/
CCOC(=O)C1=C(c2ccccc2)OC(N)=C(C#N)C1c1ccco1 (centres undefined),102,-9,-12,54,i,1.1,-2.4
Cc1ccc(C(=O)N/C(=C\c2ccc(-c3cccc([N+](=O)[O-])c3)o2)C(=O)NC(C)(C)C)cc1,102,-4,7,101,i,0.92,1.0
O=C(CC1(c2ccc(Cl)cc2)C2CC3CC(C2)CC1C3)NCCO (centres undefined),104,3,-33,121,i,0.83,/
Cc1cc(C(=O)c2cccs2)c(N)s1,100,4,/,/,i,0.9,-0.8
Cn1c(CN2CCN(c3cccc(Cl)c3)CC2)nc2ccccc21,125,4,31,107,i,0.75,-1.8
C/C(=N\NC(=O)OC(C)(C)C)c1ccc(-n2ccnc2)cc1,107,3,/,/,i,1.1,/

# Screens deposited in PubChem BioAssay by several laboratories.
